Source: PubChem (ICCB-Longwood Screening Facility, Harvard Medical School)
Ba CapD inh – CapD enzyme inhibition. purified CapD enzyme, fluorescence intensity read-out; stronger effect = lower value; some hits fall short of the stated cut. z-score (test concentration not listed). hit rate 0.23% among 140,000. AID 492967;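 active = z-score under -4 in either of two replicates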;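 note: stock transfer was 100 nL into about 40 µL; score is relative to mean and spread of the plate; one replicate is shown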
AID504770 – growth inhibitors of E. coli YBA685 in a screen for V. cholerae RctB (chromosome II replication) inhibitors | AID 504770 | hit rate 0.27% among 130,000 | z-score (test concentration not listed) | E. coli YBA685 rctB-dependent plasmid, OD600 growth, 3 h; stronger effect = lower value;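 active = z-score under -2 on both plates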;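 note: wells of about 30 µL received 100 nL stock; score is relative to mean and SD of the test wells; the first replicate is given; strong numbers were not always called active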
* = called active by the depositor; i = inactive; · = no result given.

Sequence of screens: Ba CapD inh	AID504770
- C=CCOc1c(Cl)cc(/C=N\n2nnnc2N)cc1OC
 : 3.2	0.6
- Cc1ccc(OCCC(=O)N2CCN(Cc3ccccc3)CC2)cc1
 : ·	1.4
- COc1cc(N)cc(OC)c1OC
 : ·	0.3
- N#Cc1c(NC(=O)C2CC2)sc2c1CCC2
 : i	0.25
- CCn1c(SCC(=O)N2CCCCC2)nnc1-c1ccccc1O
 : -0.96	0.05
- CCOC(=O)Cc1csc(NC(=O)Nc2ccccc2)n1
 : 0.085	·
- O=C(CCNC(=O)c1ccccc1)Oc1ccc2c(c1)OCO2
 : ·	0.1
- CCOC(=O)CSc1nc(C)cc(C)c1C#N
 : 1.2	2.3
- CC(=O)N1CCN(CC(O)COc2ccc(OCc3ccccc3)cc2)CC1 (stereo not drawn)
 : 0.55	-0.7
- CCOC(=O)c1sc(COc2ccc(C3SCCS3)cc2)nc1C
 : 9.9	-1

Next results.
Sequence of screens: Ba CapD inh	AID504770
- O=C(CSc1nc(-c2ccccc2)c(-c2ccccc2)o1)c1ccc[nH]1
 : ·	-0.25
- CS(=O)(=O)Nc1nnc(CSc2ccccc2)s1
 : 1.2	0.15
- O=C1C2C(C(=O)N1c1ccccc1)C1C=CC2C12CC2 (stereo not drawn)
 : 0.13	0.2
- Nc1ccc2nc(N3CCOCC3)sc2c1
 : ·	0.45
- CCOCCCNc1ccc2nc3ccc(C)cc3c(=O)n2n1
 : 5.1	-0.55
- N/C(=N\OC(=O)Oc1ccccc1)c1ccccn1
 : -0.045	-1.2
- CN(C)/C=C/C=C1/CCc2ccccc2C1=O
 : -2.3	-0.65
- CCCn1c(C)cc(-c2csc(NC(=O)Cc3ccc(OC)cc3)n2)c1C
 : ·	-1.1
- COc1ccc(-n2nc3c(c2NC(=O)c2cc4ccccc4oc2=O)CS(=O)(=O)C3)cc1
 : -0.81	·
- c1ccc(N=C(Nc2ccccc2)Nc2ccccc2)cc1
 : 0.39	-0.8

Remaining list, next part.
Sequence of screens: Ba CapD inh	AID504770
- COc1cccc(N2C(=O)C3C(c4cccc(Cl)c4Cl)OC4(C(=O)c5ccccc5C4=O)C3C2=O)c1 (stereo not drawn)
 : -0.18	·
- O=C(Cn1c(=O)n(CC2CCCO2)c(=O)c2ccccc21)c1ccccc1 (stereo not drawn)
 : 0.39	0.2
- N#Cc1c(NC2=CC(=O)CCC2)sc2c1CCCC2
 : -1.7	-0.45
- Cc1ccc(/C(O)=C2\C(=N)N(c3ccccc3)C3=C(C(=O)CCC3)C2c2cccc([N+](=O)[O-])c2)cc1 (stereo not drawn)
 : -0.34	·
- Cc1ccc(-c2nn(-c3ccccc3)cc2CN(Cc2ccccc2)C(=O)CCC(=O)O)o1
 : 21	-1.1
- N#CC1=C(N)Oc2n[nH]c(-c3cccc([N+](=O)[O-])c3)c2C1c1ccc(OC(=O)N2CCOCC2)cc1 (stereo not drawn)
 : -0.04	·
- O=C(Cc1ccccc1)Nc1ccccc1N1CCOCC1
 : 0.72	0.05
- CCOC(=O)C1(NC(=S)N2CCOCC2)Sc2cc(C)ccc2NC1=O (stereo not drawn)
 : -0.14	-0.35
- COc1ccc(CO)cc1OCc1ccccc1
 : -0.28	0.05
- COc1ccc(OC)c(C(=O)COC(=O)C2Cc3ccccc3CN2C(=O)c2ccco2)c1 (stereo not drawn)
 : ·	0.1

The listing continues:
Sequence of screens: Ba CapD inh	AID504770
- CCS(=O)(=O)N1CCc2cc(C(=O)CSc3nnc(-c4cccs4)n3C3CC3)ccc21
 : ·	0.45
- CCOC(=O)c1cnc2c(c(C)nn2C)c1Sc1ccc(Cl)cc1
 : -0.77	·
- CCOC(=O)Cc1nc(N)ncc1C(=O)OCC
 : 1.5	-0.05
- O=C(NCCNc1ncc(C(F)(F)F)cc1Cl)Nc1ccc(Cl)cc1
 : 0.71	·
- O=c1nc2n(c3ccccc13)C(c1ccccc1)C(O)=C2c1nc2ccccc2[nH]1 (stereo not drawn)
 : ·	-0.3
- Cc1nc(SCC(=O)c2c[nH]c3ccccc23)n[nH]1
 : 0.79	-1.1
- Cc1cc(NC(=O)CC(c2ccccc2)c2ccccc2)no1
 : 0.14	0.8
- Nc1ccc(C(=O)Nc2ccc(C(=O)O)cc2N)cc1
 : 0	-0.1
- CC(C)Cn1cc(C(=O)NCc2ccco2)c2c3ccccc3n(C)c2c1=O
 : 0.015	-0.45
- COc1ccc(N(CC(=O)Nc2ccc(C(C)C)cc2)S(=O)(=O)c2c(C)noc2C)cc1
 : -0.16	0

Additional records:
Sequence of screens: Ba CapD inh	AID504770
- C=CP(=O)(O)c1ccccc1
 : 0.21	-0.75
- Cn1nc(C(F)(F)F)c(C#N)c1N1CCN(c2ccccc2)CC1
 : 0.19	2
- O=C(NCc1ccccc1)c1ccc2ncccc2c1
 : 0.31	1.5
- CCN1CCN(c2ncnc3ccc(Br)cc23)CC1
 : -0.7	0.1
- Cn1c(SCC#N)nnc1-c1ccc2ncccc2c1
 : -0.26	-1.1
- CSc1ccccc1NC(=O)CN1c2ccccc2CC1C (stereo not drawn)
 : ·	0.3
- Cc1cc(C)n(-c2ccc(-n3cccc3)cc2)n1
 : 0.61	-0.3
- COc1ccccc1C(=O)N=S1CCN(c2ncc(C(F)(F)F)cc2Cl)CC1
 : 0.45	-0.6
- CC1=NN(c2cccc(Br)c2)C(=O)/C1=C/c1ccc(-c2ccc3c(c2)C(=O)OC3)o1
 : 2.5	·
- COc1ccc(CN2CCN(C(=O)c3ccc[nH]c3=S)CC2)c(OC)c1OC
 : -0.33	·

Grouped by structure: the entries above containing bromine (2)
Sequence of screens: Ba CapD inh	AID504770
- CCN1CCN(c2ncnc3ccc(Br)cc23)CC1
 : -0.7	0.1
- CC1=NN(c2cccc(Br)c2)C(=O)/C1=C/c1ccc(-c2ccc3c(c2)C(=O)OC3)o1
 : 2.5	·

2 records picked at random from those above, as already listed:
Sequence of screens: Ba CapD inh	AID504770
- Cc1cc(C)n(-c2ccc(-n3cccc3)cc2)n1
 : 0.61	-0.3
- C=CP(=O)(O)c1ccccc1
 : 0.21	-0.75

Continued:
Sequence of screens: Ba CapD inh	AID504770
- COc1ccc(C(=O)OCc2nc3ccccc3c(=O)n2CC#N)c(OC)c1OC
 : ·	-0.1
- CC(C)CNc1c(Cl)cnn(C)c1=O
 : -0.18	-0.7
- Cc1cccc(NC(=O)CO/N=C/c2ccc3c(c2)OCO3)c1
 : ·	-0.6
- Cc1nc2sc3c(c2c(=S)[nH]1)CCC3
 : ·	0.5
- CN(C)C(CNC(=O)c1cc2ccccc2oc1=O)c1ccco1 (stereo not drawn)
 : 7.1	0.65
- N#CC(C#N)C(CC(=O)c1ccccc1)c1ccc2c(c1)OCO2 (stereo not drawn)
 : ·	-1.2
- c1coc(-c2nnc3n2CCCCC3)c1
 : -0.035	0.15
- Cc1cc(/C=C2\SC(=Nc3ccccc3)NC2=O)c(C)n1-c1ccccc1
 : -0.28	·
- COc1ccc(NC(=O)COc2ccc(/C=N/n3c(C)nnc3C)cc2OC)cc1
 : ·	-0.45
- COc1ccc(/C=C2\C=C(c3ccccc3)N(c3cccc(C(C)=O)c3)C2=O)cc1Br
 : 0.07	·

Carrying on.
Sequence of screens: Ba CapD inh	AID504770
- O=C(NCCc1ccccc1)C1c2ccccc2C(=O)N1C1CCCCCC1 (stereo not drawn)
 : -0.38	-0.3
- COc1ccc(C(=O)CC2(O)C(=O)N(Cc3cccc4ccccc34)c3ccccc32)c(OC)c1 (stereo not drawn)
 : -0.03	·
- COc1ccc(-c2nc3ncnn3cc2C)cc1F
 : 18	-0.45
- CCOC(=O)c1cc2ccc(OCc3ccccc3)cc2oc1=O
 : -0.085	0.15
- O=C1c2cc(-c3nc(-c4ccc(Cl)cc4)[nH]c3-c3ccccc3)ccc2-c2ccc([N+](=O)[O-])cc21
 : -0.2	·
- O=C1CC2c3ccccc3C1C1C(=O)N(c3ccc(N=Nc4ccccc4)cc3)C(=O)C21 (stereo not drawn)
 : -0.28	·
- NS(=O)(=O)c1ccc(CCNC(=O)CSc2ncccc2C(=O)O)cc1
 : 0.98	-0.15
- O=C(CSCc1ccccc1)Nc1cccc(-c2cn3cccnc3n2)c1
 : 0.32	-0.4
- CN1CCC(/C=C/c2cccs2)=N1
 : 13	-0.65
- CN1C(=O)N(C)C(NC(=O)NC(C)(C)CO)C1NC(=O)NC(C)(C)CO (stereo not drawn)
 : -0.7	·

Further results:
Sequence of screens: Ba CapD inh	AID504770
- [O-][n+]1onc2c(-c3ccc(Cl)cc3)nnc(-c3ccc(Cl)cc3)c21
 : -0.12	1.3
- COC(=O)C1=C(O)/C(=C/c2ccc(N(C)C)cc2)SC1=Nc1ccccc1
 : -0.97	·
- Cc1nnc(-c2cccc(C(F)(F)F)c2)nc1NC(C)(C)C
 : -0.075	0.95
- CC(C)(C)N(CCO)C(=O)CN1C(=O)/C(=C/c2cccc(Br)c2)SC1=S
 : 0.12	0.15
- COC(=O)c1cc2occc2n1Cc1ccccc1
 : -0.47	0.05
- COc1ccc(CCNC(=O)c2cc3oc4ccccc4c3n2C)cc1OC
 : 2.2	0.2
- O=C(OCc1cc(F)cc(F)c1)c1cc([N+](=O)[O-])cc([N+](=O)[O-])c1
 : 0.3	·
- Cc1nc2scc(C)n2c1C=C(C#N)C#N
 : ·	-0.9
- CCC(=O)Nc1cc2c(cc1C(=O)CC)OCCO2
 : ·	1.4
- O=C(Cc1csc(NC(=O)Nc2ccc(Cl)cc2)n1)Nc1nccs1
 : ·	-0.1

(continued)
Sequence of screens: Ba CapD inh	AID504770
- Cc1nc(-c2coc3cc(O)cc(O)c3c2=O)cs1
 : ·	1.5
- N#CC1=C(N)Oc2c(c(=O)[nH]c3ccccc23)C1c1ccccc1 (stereo not drawn)
 : 4.4	1.4
- NS(=O)(=O)c1ccc(CCNC(=O)CCCn2c(=O)[nH]c3ccc(Br)cc3c2=O)cc1
 : -0.17	-1.1
- CSc1ccc(/C=c2/sc3nc4c(C)c(C)ccc4n3c2=O)cc1
 : 0	-0.9
- CC(=O)Nc1ccc(SCC(=O)Nc2ccc(C#N)cc2)cc1
 : ·	-0.6
- CC(C)(C)C(=O)Nc1ccc2c(c1)OCCO2
 : 0.36	2.8
- O=C1CCC(C(=O)OCC(=O)NC23CC4CC(CC(C4)C2)C3)N1 (stereo not drawn)
 : 0.3	-0.35
- O=C(c1nnc(-c2ccccc2)o1)C1CCCC1
 : 0.17	-0.55
- COc1ccccc1NC(=O)Nc1ccnn1Cc1ccccc1
 : ·	1.1
- O=c1c2ccccc2c(C=Nc2ccccc2Cl)c(O)n1-c1ccc(Cl)cn1
 : -0.35	-0.95

Record cards, as listed above:
Cc1nc(-c2coc3cc(O)cc(O)c3c2=O)cs1 in the list: Ba CapD inh: ·; AID504770: 1.5
COc1ccccc1NC(=O)Nc1ccnn1Cc1ccccc1 in the list: Ba CapD inh: ·; AID504770: 1.1
CSc1ccc(/C=c2/sc3nc4c(C)c(C)ccc4n3c2=O)cc1 in the list: Ba CapD inh: 0; AID504770: -0.9

Next part.
Sequence of screens: Ba CapD inh	AID504770
- CCOC(=O)C1=C(CSc2nc(C)c(C)c(C)c2C#N)OC(N)=C(C#N)C1c1cccc(OCc2ccccc2)c1 (stereo not drawn)
 : -0.12	·
- CCNc1nc(NC(C)C)nc(Oc2ccc(C(=O)OCC)cc2)n1
 : 0.82	·
- CCCOc1ccccc1C1C(C#N)=C(N)Oc2n[nH]c(-c3cc(OC)c(OC)c(OC)c3)c21 (stereo not drawn)
 : -0.38	·
- CCOc1nc(SCCOc2ccc(C)cc2)nc(N(C)C)n1
 : 0.095	·
- C1=C(c2ccccc2)CCN(Cn2cnc3ccccc32)C1
 : ·	-0.65
- CCn1c(-c2ccc3c(c2)OCCO3)cnc1SCC(=O)N1CCCC1=O
 : ·	-0.7
- O=C(Nc1cc(F)ccc1F)N1CCN(c2ccnc3cc(Cl)ccc23)CC1
 : 0.61	·
- O=C(CSc1nnc(NC(=O)COc2ccc(Cl)cc2Cl)s1)Nc1nccs1
 : -0.12	·
- CCCCn1c(CO)nc2ccccc21
 : 0.65	-0.9
- O=C(c1cccs1)C1CN(c2ccccc2)CC1c1ccc(Cl)cc1 (stereo not drawn)
 : -0.96	·

Next part.
Sequence of screens: Ba CapD inh	AID504770
- CSc1nnc(-c2ccc(S(=O)(=O)N=S(C)(=O)c3ccc(Cl)cc3)s2)n1C (stereo not drawn)
 : 74	0
- COc1ccc(OC)c2[nH]c(=O)c(CCNC(=O)c3ccco3)cc12
 : -0.38	-0.6
- CC(C)C(=O)N(Cc1cccnc1)Cc1cc2ccccc2[nH]c1=O
 : ·	0.2
- COc1cc2c(cc1OC)-c1c(OC)c(OC)cc3c1C(C2)N(C)CC3 (stereo not drawn)
 : 2.1	·
- Cc1cc(C)nc(-n2nc(C)cc2NC(=O)c2ccc(F)cc2F)n1
 : 0.89	-0.15
- C=CCN1C(=O)/C(=C\c2ccccc2O)SC1=S
 : -1.6	0.15
- COC(=O)CCC1CCCCC1=O (stereo not drawn)
 : 0.095	2.2
- COc1ccc(C2Oc3ccc(Br)cc3C3CC(c4cccs4)=NN32)cc1OC (stereo not drawn)
 : 0.015	·
- N#Cc1cc(-c2cccc(C(F)(F)F)c2)cnc1Oc1ccc(F)cc1
 : 2.4	·
- Cc1csc(Sc2ccc(S(=O)(=O)N3CCCC3)cn2)n1
 : ·	-2.7

Continuation.
Sequence of screens: Ba CapD inh	AID504770
- Cn1c(C(=O)N2CCN(Cc3ccc4c(c3)OCO4)CC2)cc2ccccc21
 : 0.35	·
- COC(=O)CC1Oc2ccc(C)cc2NC1=O (stereo not drawn)
 : -0.72	-0.4
- O=C(O)CSCc1cn2cc(Cl)ccc2n1
 : ·	2.1
- CCCN1C(=S)N(CCO)C(=O)/C1=C/C=C1/Oc2ccccc2N1CCC(=O)O
 : -1.3	0.85
- CCOC(=O)C1C(=O)NC(SCC(=O)OC)=C(C#N)C1c1ccccc1OCC (stereo not drawn)
 : -0.48	·
- O=C(Cc1ccccc1)OCC(=O)N1CCC(Cc2ccccc2)CC1
 : -0.71	0.85
